Bioassay records deposited in PubChem BioAssay by several laboratories.
Mtb H37Rv = M. tuberculosis H37Rv growth inhibitors, H37Rv strain (AID 1626); M. tuberculosis H37Rv growth inhibition; higher % means a stronger effect; one-dose inhibition, % at 10 µM; IC50 in µM for titrated hits; 220,000 compounds, 0.95% hits;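 active means confirmed in a dose series; inconclusive means inhibition above 80% but not taken into the dose series; inactive means below 80% or under 30% at every dose of the series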;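 further: bacteria incubated seven days before Alamar blue readout; 0% = bacteria only wells and 100% = bacteria with antibiotic wells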
Mtb bLac sens = beta-lactam sensitization of Mtb H37Rv; 330,000 compounds, 0.27% hits; M. tuberculosis H37Rv growth with meropenem, percent inhibition; hits of this screen are not shown here; inhibition, % at 25 µM; AID 434955;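 active means about 74% or more and at least 40 points above the plate without the antibiotic, then above 30% in a dose series; inconclusive means first-round hits that could not be retested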;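 further: growth measured after seven days incubation then overnight dye step; 0% = bacteria only wells and 100% = bacteria with antibiotic; twin plates without the antibiotic show which effects depend on it; some results filed as inactive read as strong as hits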
Arbovirus anti = blocks arbovirus infection. 200,000 compounds, 0.37% hits. arbovirus infection cell-based antiviral screen. inhibition, % at 10 µM. AID 1251;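 active means inhibition from about 30%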;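 further: bluetongue infection of BSR cells; cell survival read as ATP light after 72 h; 0% = infected wells without compound and 100% = uninfected wells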
YopH inh = blocks Yersinia enterocolitica YopH tyrosine phosphatase | inhibition, %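 (about 10 µM by stock and volumes)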 | AID 898 | 140,000 compounds, 0.16% hits | fluorescence Ex485/Em525;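 active means inhibition of 50% or more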;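 further: controls were vehicle for no effect and minimum signal wells for full effect; inactives centre near -20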
RecA splice inh = inhibitors of M. tuberculosis RecA intein splicing. P9WHJ3. cell-free RecA intein splicing, fluorescence. inhibition, %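 (about 9 µM by stock and volumes)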. 290,000 compounds, 0.75% hits. AID 2221; in the data active means inhibition above about 30%; inconclusive means no clear call, values can overlap the other calls;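 further: 0% = vehicle wells and 100% = reference inhibitor control wells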
Target sequence (P9WHJ3 whole entry, looked up, canonical isoform): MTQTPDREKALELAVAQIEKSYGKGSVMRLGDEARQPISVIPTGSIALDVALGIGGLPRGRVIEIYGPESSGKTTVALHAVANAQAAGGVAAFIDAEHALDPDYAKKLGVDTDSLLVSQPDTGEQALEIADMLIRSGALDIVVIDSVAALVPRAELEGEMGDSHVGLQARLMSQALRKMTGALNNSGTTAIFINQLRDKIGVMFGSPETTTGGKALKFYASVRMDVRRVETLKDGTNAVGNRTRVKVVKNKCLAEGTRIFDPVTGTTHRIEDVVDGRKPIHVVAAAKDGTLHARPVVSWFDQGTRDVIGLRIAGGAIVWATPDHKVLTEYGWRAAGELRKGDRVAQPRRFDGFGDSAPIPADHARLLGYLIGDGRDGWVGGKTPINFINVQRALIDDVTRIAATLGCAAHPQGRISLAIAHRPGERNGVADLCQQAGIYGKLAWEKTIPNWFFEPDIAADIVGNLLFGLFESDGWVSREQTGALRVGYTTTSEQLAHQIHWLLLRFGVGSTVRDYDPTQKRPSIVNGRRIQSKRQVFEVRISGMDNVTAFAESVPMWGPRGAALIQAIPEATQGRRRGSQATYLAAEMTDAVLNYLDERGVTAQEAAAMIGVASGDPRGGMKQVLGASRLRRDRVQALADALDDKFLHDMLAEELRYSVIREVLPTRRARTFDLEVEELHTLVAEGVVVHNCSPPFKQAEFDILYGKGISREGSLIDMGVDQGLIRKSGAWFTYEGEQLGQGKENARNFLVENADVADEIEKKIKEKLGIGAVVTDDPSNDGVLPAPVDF
Arbovirus anti repeat = second read-out of Arbovirus anti, no call of its own (marks repeat the call); inhibition, %; measured here: 10K subset replicate screen; many hits read low in the repeat;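 first of two repeat runs on a subset; 0% = infected and 100% = uninfected wells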
An asterisk follows results filed as active; u = inconclusive; x = not tested or not shown. Some of the compounds tested; the hit share may differ from the screen's.

Sample of the layout:
SMILES	Mtb H37Rv	Mtb bLac sens	Arbovirus anti	YopH inh	RecA splice inh	others
OCCC1CN(Cc2cccn2-c2nccs2)CCN1Cc1ccc(F)c(F)c1 (centres undefined)	-1%	3	7	x	x
COc1ccccc1N1CCN(S(C)(=O)=O)CC1	-10%	-8	2	-20	1.0
CCOC(=O)c1oc2cccc(OC(C)=O)c2c1C	2%	-8	1	-18	5.3
Cc1ccc(C)c2[nH]c(=O)c(CCNC(=O)c3ccc(S(=O)(=O)N4CCOCC4)cc3)cc12	x	-1	x	x	-0.2
CC1(c2ccccc2)NC(=O)N(CC(=O)N2CCN(S(=O)(=O)c3cccc([N+](=O)[O-])c3)CC2)C1=O (centres undefined)	x	-7	x	x	-3.3
Cc1ccsc1/C=C(\CC(=O)O)c1nc2ccccc2o1	x	4	x	x	-0.2
Nc1cc2c(cc1O)CCCC2	-6%	0	-7	x	1.0
CCCc1cc(=O)n2nc(N3CCC(C(=O)NCc4ccco4)CC3)sc2n1	x	-9	x	x	-0.6
COc1ccc(C/C(C)=N/NC(=O)c2ccc(C)cc2C)cc1	5%	-4	16	x	-0.9
COc1ccc(S(=O)(=O)N2CCN(C(=O)c3ccco3)CC2)cc1OC	-10%	-12	-6	-24	x
Cc1[nH]n(-c2ccccc2)c(=O)c1C=Nc1cccc(F)c1	5%	7	x	x	4.3
COc1ccccc1/C=C/C(=O)N1CCCC1	-3%	9	-9	-33	-3.0
CSc1ccc(Cl)c(C(=O)Nc2ccc(OCC(N)=O)cc2)c1	2%	42	10	-42	-3.4
O=c1[nH]c2ccc(NCc3ccccc3OCc3ccc(Cl)cc3)cc2[nH]1	x	14	x	x	6.6
Nc1ccccc1Sc1c[nH]c2ccccc12	x	-2	x	x	-9.3
COc1ccccc1CCN1CCCC(CN(C)C(=O)CCC(=O)N(C)C)C1 (centres undefined)	x	-3	x	x	-0.8
Cc1nnc(NC(=O)CCn2cnc3ccccc3c2=O)s1	-10%	7	-3	x	12
COc1ccc(/C=N/OC(=O)c2ccc(Cl)cc2)c(Cl)c1OC	10%	1	x	x	1.2
COC(=O)C1=CO[C@@H](OC2OC(CO)C(O)C(O)C2O)[C@@H]2C(CO)=CC[C@H]12 (some centres undefined)	-9%	-9	0	-28	-1.5
O=C(CC1Oc2ccc(Cl)cc2NC1=O)NC1CCCCCC1 (centres undefined)	0%	u	-4	11	1.0	Arbovirus anti repeat=0

Main list, from the start:
SMILES	Mtb H37Rv	Mtb bLac sens	Arbovirus anti	YopH inh	RecA splice inh	others
OCCC1CN(Cc2cccn2-c2nccs2)CCN1Cc1ccc(F)c(F)c1 (centres undefined)	-1%	3	7	x	x
COc1ccccc1N1CCN(S(C)(=O)=O)CC1	-10%	-8	2	-20	1.0
CCOC(=O)c1oc2cccc(OC(C)=O)c2c1C	2%	-8	1	-18	5.3
Cc1ccc(C)c2[nH]c(=O)c(CCNC(=O)c3ccc(S(=O)(=O)N4CCOCC4)cc3)cc12	x	-1	x	x	-0.2
CC1(c2ccccc2)NC(=O)N(CC(=O)N2CCN(S(=O)(=O)c3cccc([N+](=O)[O-])c3)CC2)C1=O (centres undefined)	x	-7	x	x	-3.3
Cc1ccsc1/C=C(\CC(=O)O)c1nc2ccccc2o1	x	4	x	x	-0.2
Nc1cc2c(cc1O)CCCC2	-6%	0	-7	x	1.0
CCCc1cc(=O)n2nc(N3CCC(C(=O)NCc4ccco4)CC3)sc2n1	x	-9	x	x	-0.6
COc1ccc(C/C(C)=N/NC(=O)c2ccc(C)cc2C)cc1	5%	-4	16	x	-0.9
COc1ccc(S(=O)(=O)N2CCN(C(=O)c3ccco3)CC2)cc1OC	-10%	-12	-6	-24	x
Cc1[nH]n(-c2ccccc2)c(=O)c1C=Nc1cccc(F)c1	5%	7	x	x	4.3
COc1ccccc1/C=C/C(=O)N1CCCC1	-3%	9	-9	-33	-3.0
CSc1ccc(Cl)c(C(=O)Nc2ccc(OCC(N)=O)cc2)c1	2%	42	10	-42	-3.4
O=c1[nH]c2ccc(NCc3ccccc3OCc3ccc(Cl)cc3)cc2[nH]1	x	14	x	x	6.6
Nc1ccccc1Sc1c[nH]c2ccccc12	x	-2	x	x	-9.3
COc1ccccc1CCN1CCCC(CN(C)C(=O)CCC(=O)N(C)C)C1 (centres undefined)	x	-3	x	x	-0.8
Cc1nnc(NC(=O)CCn2cnc3ccccc3c2=O)s1	-10%	7	-3	x	12
COc1ccc(/C=N/OC(=O)c2ccc(Cl)cc2)c(Cl)c1OC	10%	1	x	x	1.2
COC(=O)C1=CO[C@@H](OC2OC(CO)C(O)C(O)C2O)[C@@H]2C(CO)=CC[C@H]12 (some centres undefined)	-9%	-9	0	-28	-1.5
O=C(CC1Oc2ccc(Cl)cc2NC1=O)NC1CCCCCC1 (centres undefined)	0%	u	-4	11	1.0	Arbovirus anti repeat=0
Cc1ccc(NC(=O)C2CCN(C(=O)c3ccc(F)cc3)CC2)nc1	x	-11	x	x	-1.5
CCCSc1cc(=O)n(-c2ccc(F)cc2)nc1C(=O)OCC	7%	0	-1	x	2.5
NS(=O)(=O)c1ccc(NC(=O)COC(=O)c2cccc(S(=O)(=O)N3CCCC3)c2)cc1	-1%	-6	x	x	0.3
COc1cccc(CC(NC(C)=O)C(=O)NC2CCN(c3ncccc3[N+](=O)[O-])CC2)c1 (centres undefined)	-5%	2	15	x	0.7
COc1ccc(Nc2nc(OC)nc(N3CCOCC3)n2)cc1	-2%	-4	14	x	4.7

Carrying on:
SMILES	Mtb H37Rv	Mtb bLac sens	Arbovirus anti	YopH inh	RecA splice inh	others
C=CCNC(=O)c1ccc(OC2CCN(S(=O)(=O)N(C)C)CC2)cc1	-12%	3	-11	x	-1.0
Cc1ccc2nc(-c3ccccn3)cc(C(=O)NCCc3ccc(F)cc3)c2c1	x	1	x	x	0.1
COc1ccc(/C(C)=N/NC(=O)CNC(=O)/C=C/c2ccccc2OC)cc1	x	5	x	x	-3.3
COc1ccc(CN2CCN(C(=O)CCC(=O)Nc3nnc(C(C)C)s3)CC2)cc1F	x	-5	x	x	-0.1
COc1ccc(NC(=O)c2cccnc2Cl)c(S(=O)(=O)N2CCOCC2)c1	-11%	-11	-1	-10	0.3
Cc1ccc(S(=O)(=O)N2CCN(C)CC2)cc1-c1nnc2c3ccccc3c(C)nn12	-1%	3	5	-53	0.0
COc1ccc(-c2cc(C)nc(SCC(=O)c3cccc([N+](=O)[O-])c3)n2)cc1	-2%	0	6	-14	-8.7
O=C(Nc1cccc2ccccc12)c1nn(C23CC4CC(CC(C4)C2)C3)cc1Br	6%	56	-8	-12	5.5
O=C(Cn1cnc([N+](=O)[O-])n1)NCCO	x	4	4	x	1.6
CCOC(=O)CCc1c(C)nc2cc(-c3ccc(Cl)cc3)[nH]n2c1=O	-2%	-6	-3	-37	-4.9
CC1CCCN(c2nc3ccccc3nc2C(C#N)S(=O)(=O)c2cccs2)C1 (centres undefined)	2%	11	14	-23	-20
Cn1cc(C(=O)c2ccc(Cl)cc2Cl)cc1C(=O)NN	x	-4	x	x	1.8
CC1(C)N(OCc2ccccc2)C(=O)C(=O)N(OCc2ccccc2)C1(C)C	-4%	-9	0	-5	-0.2
Cc1ccccc1C(=O)NCC(c1ccco1)N1CCc2ccccc2C1 (centres undefined)	x	-2	x	x	-0.9
Cc1cc(C)nc(NNC(=O)c2ccccc2O)n1	-2%	4	8	x	-2.4
COc1ccc(NC(=O)NNC(=O)COc2ccc3cc(Br)ccc3c2)cc1	x	3	x	x	-1.6
CCOC(=O)Cc1csc(NS(=O)(=O)c2ccc([N+](=O)[O-])cc2)n1	x	12	x	x	3.1
COc1ccc(C2NC(=S)N3C(c4ccc(OC)cc4)NC(=S)N23)cc1 (centres undefined)	-6%	27	6	-22	-1.4
CCOC(=O)c1ccccc1NC(=O)c1c(F)c(F)c(F)c(F)c1F	11%	u	-24	-4	15
Cc1cccc(C(C)n2nnc3ccccc32)c1O (centres undefined)	x	-12	x	x	1.8
O=C(NC1CCCC1)C(c1ccccn1)N(C(=O)c1csnn1)c1ccccc1Br (centres undefined)	x	-2	x	x	0.8
CCN1CCN(Cc2oc(CO)cc(=O)c2O)CC1	-2%	-12	19	-18	-2.4
CC(=O)Cc1nsc(NC(=O)c2ccccc2)n1	-4%	-8	-5	-46	0.1
CCC1CN(C(=O)NCc2ccccc2)c2ccccc2O1 (centres undefined)	x	1	x	x	0.5
CC(=O)c1ccc(N2CCN(CC(=O)Nc3ccc(N4CCOCC4)cc3)CC2)cc1	3%	-8	0	x	-2.1

Other results.
SMILES	Mtb H37Rv	Mtb bLac sens	Arbovirus anti	YopH inh	RecA splice inh	others
Cc1cc(N/C=C(\C#N)S(=O)(=O)c2ccc(Cl)cc2)nc(C)n1	-4%	1	x	x	2.9
CCCCCOC(=O)c1[nH]c2c(c1C)C(=O)C(C(=O)OC)C(C)C2 (centres undefined)	20%	-7	-10	-18	1.1
CCN(CC)CCC(c1ccc2c(c1)OCO2)c1c(O)cc(OC)cc1OC (centres undefined)	4%	0	x	x	-2.2
O=C1C=CC(=O)N1CCCCCCN1C(=O)C=CC1=O	-1%	25	-5	-14	x
O=C(Nc1ccccc1C(=O)N1CCCCCC1)c1cccc(S(=O)(=O)N2CCOCC2)c1	-10%	x	2	-69	1.0
COCCN1Cc2cccc(C(=O)NCc3cccs3)c2C1=O	0%	5	3	x	-4.7
Cc1nc2ccccc2nc(C)c1=NOCc1ccccc1Cl	-2%	-3	-8	-28	8.0
CC(=O)NC1(c2ccccc2)CCN(c2nc(C)cc(C)n2)CC1	1%	-8	9	-31	x
O=S(=O)(c1cccc2nsnc12)N1CCN(c2ccc(F)cc2)CC1	7%	-2	-1	x	-2.0
O=C(CCSCc1ccc(Cl)cc1)NC1CCCC1	17%	26	-10	-6	-2.6
NC(Cc1ccccc1)c1nc2ccccc2[nH]1 (centres undefined)	x	12	x	x	-1.4
Cc1ccccc1N1CCN(C2=NC(=O)/C(=C\c3cccs3)S2)CC1	14µM*	98	-29	-16	15
O=C(c1sccc1-n1cccc1)N1CCCC1	2%	0	4	-54	-3.1
COc1ccccc1CNC(=O)CSc1cc(=O)n(C)c2ccccc12	-3%	-3	0	x	-0.8
COc1cccc(NC2CC(=O)N(CCc3ccccc3)C2=O)c1 (centres undefined)	5%	-9	4	-32	0.2
CC1=CC(C)C(CN(CCC[N+](C)(C)C)C(=O)Nc2ccccc2)C(C)C1 (centres undefined)	-3%	-8	x	x	1.3
O=C(C(F)C(F)(F)F)N1CCN(c2ccccc2)CC1 (centres undefined)	-10%	5	7	-19	-2.8
CSc1ccccc1C(=O)NCCSc1ccccc1	8%	-6	-4	0	x
CCC12C=CCN3CCC4(c5cc(Br)c(OC)cc5N(C)C4C(O)(C(=O)OC)C1OC(C)=O)C32 (centres undefined)	-2%	-4	-1	-37	1.1
Fc1ccccc1-c1nc2nc3ccccc3nc2n1CC1CCCO1 (centres undefined)	-6%	-5	x	x	2.2
CCOc1ccc(C(=O)N[C@H](C(=O)Nc2cccc(S(=O)(=O)N3CCCCC3)c2)C(C)C)cc1	0%	0	-6	-24	1.4
CC(C(=O)NCC1CCCO1)c1ccc([N+](=O)[O-])cc1 (centres undefined)	0%	-4	0	x	3.5
COC(=O)c1ccccc1S(=O)(=O)N1CCC(C(=O)OCC(=O)NCC(F)(F)F)CC1	5%	-6	1	x	0.5
c1ccc(C(c2nnnn2C2CCCCC2)N2CCc3ccccc3C2)nc1 (centres undefined)	-8%	10	6	33	6.1
Cc1ccc(Cc2nnc(SCC(=O)Nc3ccccc3)n(N)c2=O)cc1	x	-12	x	x	3.1
OCCN(Cc1ccccc1)Cc1ccccc1O	2%	-3	2	x	-0.2
CC1=C(C(=O)OCc2ccccc2)C(c2ccc(Br)cc2)NC(=O)N1CCCCCC(=O)O (centres undefined)	-6%	3	x	x	2.2
